Ecoli growth – E. coli growth inhibition, primary screen, OD600; Escherichia coli growth, 23 h; active compounds read low; OD600 absorbance (no concentration beside the values); hit rate 0.21% among 330,000; AID 1053175, 2014;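 active = OD600 absorbance below the run mean of sample wells minus 3.6 SD, in any replicate, cut at about 0.56 in these data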;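 also: stock transfer was 300 nL into about 60 µL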
HNF4A DNA FP – change in binding of human HNF4A to DNA, primary screen, biochemical, fluorescence polarization, FITC-DNA. Hepatocyte nuclear factor 4-alpha (Homo sapiens), P41235. 1 h. activity change, % at 10 µM. hit rate 0.3% among 360,000; in the data active = activity change above about 30%, passing the limit was not always enough;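 also: controls were the assay level and a saturating level of protein; the project sought stronger binding though the title names inhibitors; some compounds called inactive have numbers as strong as hits; positive values seem to mean higher polarization but the record does not say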
UCH37 inh – inhibitors of human UCH37 deubiquitinase, primary screen, biochemical, Ub-AMC cleavage, fluorescence; AID 588478, 2011; Ubiquitin carboxyl-terminal hydrolase isozyme L5 (Homo sapiens), Q9Y5K5; hit rate 0.33% among 330,000; purified proteasome/UCH37; inhibition, % (concentration not given with the values);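 active = mean of two replicates above 20%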;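 also: 0% = compound-free wells with enzyme and 100% = wells lacking proteasome; stock transfer was 100 nL into about 20 µL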
Target sequence (Q9Y5K5 whole entry, looked up): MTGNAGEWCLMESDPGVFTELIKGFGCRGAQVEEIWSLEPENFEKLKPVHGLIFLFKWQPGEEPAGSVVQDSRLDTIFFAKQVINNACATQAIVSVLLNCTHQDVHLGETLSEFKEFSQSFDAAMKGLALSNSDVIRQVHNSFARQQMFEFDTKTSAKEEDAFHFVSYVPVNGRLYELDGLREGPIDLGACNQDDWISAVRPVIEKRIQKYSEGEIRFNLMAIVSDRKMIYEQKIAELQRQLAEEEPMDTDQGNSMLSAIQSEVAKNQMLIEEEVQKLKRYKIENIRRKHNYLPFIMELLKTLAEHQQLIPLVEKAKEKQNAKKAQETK
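Material: Human UCH37 enzyme supplied as purified proteasome complex | Schedule: 30 min preincubation with enzyme, 25 min cleavage at room temperature | Detection: AMC fluorescence 355/460 nm | Measure: % inhibition of Ub-AMC cleavage fluorescence | Controls: Wells without proteasome as full block, compound-free enzyme plus substrate as uninhibited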
FGF22 binding – binders of human FGF22 protein, primary screen, FGF22 synaptogenesis inhibitor project, biophysical, thermal shift, single point | Fibroblast growth factor 22 (Homo sapiens), Q9HCT0 | recombinant FGF22 thermal shift, SYPRO orange fluorescence; percent of sucrose octasulfate shift, DMSO zero | calls only at 9.99 µM | hit rate 1.5% among 340,000 | AID 651658, 2012;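 active = melting point raised past a set limit in the mean and every replicate; inconclusive = no clear call; three in four hits are not shown here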
Beta2AR agonist – beta2AR agonists driving receptor internalization, primary screen, cell-based, FAP fluorogen, flow cytometry; Am2.2-beta2AR cells; reference of the scale not given here; hit rate 0.43% among 340,000; response, % (no concentration beside the values);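 active = response above a set limit, near 3 SD of response in nonfluorescent compounds, cut at about 42% in these data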;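 also: stock transfer was 100 nL into about 11 µL; a reference agonist was the positive control; negative values mostly stem from fluorescent compounds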
Target sequence (P07550 whole entry, looked up): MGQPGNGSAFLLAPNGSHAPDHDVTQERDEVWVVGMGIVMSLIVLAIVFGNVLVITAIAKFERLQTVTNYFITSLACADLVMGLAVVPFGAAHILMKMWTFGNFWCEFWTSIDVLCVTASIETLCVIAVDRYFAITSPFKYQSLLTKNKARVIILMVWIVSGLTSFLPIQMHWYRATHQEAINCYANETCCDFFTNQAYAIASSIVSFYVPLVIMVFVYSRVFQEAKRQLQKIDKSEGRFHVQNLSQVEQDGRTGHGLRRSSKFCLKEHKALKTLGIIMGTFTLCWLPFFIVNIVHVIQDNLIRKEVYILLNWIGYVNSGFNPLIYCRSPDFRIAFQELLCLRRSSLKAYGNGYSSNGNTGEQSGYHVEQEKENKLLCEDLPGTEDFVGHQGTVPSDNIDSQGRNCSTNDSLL
rRNA inh HTS – reduced GFP signal of wild-type E. coli, primary screen, bacterial rRNA inhibitor project, GFP/RFP fluorescence, OD600, single point. AID 720706, 2013. GFP signal change (wild-type ribosome), % (no concentration beside the values). E. coli WT GFP vs humanized-ribosome RFP mutants, 24 h; active compounds read low; DMSO median 0, no signal -100. hit rate 1.6% among 350,000;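 active = significant combined selectivity score with lowered wild-type GFP, culture density cut under 30%, mutant RFP and density less affected; inactive = any of these conditions unmet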; also: one replicate is shown; some compounds called inactive have numbers as strong as hits
ALR H2O2 inh – inhibitors of human ALR sulfhydryl oxidase, primary screen, biochemical, H2O2 detection, HRP-luminol luminescence, single point; AID 485317, 2010; FAD-linked sulfhydryl oxidase ALR (Homo sapiens), P55789; purified ALR, DTT oxidation; inhibition, % (no concentration beside the values); hit rate 3.8% among 290,000;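 active = mean and each replicate at 75% or more; inconclusive = only one of the two met; inactive = neither met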;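 also: stock transfer was 7.5 nL into about 7.5 µL; 0% = neutral wells and 100% = wells with inactivated enzyme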
Target sequence (P55789 whole entry, looked up): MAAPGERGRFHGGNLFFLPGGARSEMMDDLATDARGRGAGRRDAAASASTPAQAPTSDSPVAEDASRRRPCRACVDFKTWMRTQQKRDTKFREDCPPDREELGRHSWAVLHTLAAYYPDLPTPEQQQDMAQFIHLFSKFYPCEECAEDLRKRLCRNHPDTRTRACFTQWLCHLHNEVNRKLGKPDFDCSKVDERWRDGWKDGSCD
rRNA inh HTS OD600 – also measured in rRNA inh HTS; calls as there; OD600 change, %; measured here: OD600 growth;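 optical density of the mix in the first replicate; 0 = DMSO median and -100 = no signal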
rRNA inh HTS RFP – second read-out of rRNA inh HTS, no call of its own (marks repeat the call); RFP signal change, %; measured here: RFP humanized mutant strains;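 first replicate; 0 = DMSO median and -100 = no signal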
* marks the source's active call; other numbers are inactive results; i = inactive; ? = inconclusive; nt = not tested or not shown; & = joins results of further samples.

SMILES | Ecoli growth | HNF4A DNA FP | UCH37 inh | FGF22 binding | Beta2AR agonist | rRNA inh HTS | rRNA inh HTS OD600 | rRNA inh HTS RFP | ALR H2O2 inh
COc1ccc(Cl)cc1NC(=O)CSc1cccc[n+]1[O-] | 0.65 | 0.6 | -1.9 | i | -1 | nt | nt | nt | 1
O=C(CSc1nnc(SCc2ccccc2Cl)s1)N/N=C/c1c[nH]c2ccccc12 | nt | -0.5 | nt | nt | -3 | nt | nt | nt | ?
Cc1nn(-c2ccccc2)nc1C(=O)OCC(=O)N1CCCCC1C (stereo unspecified) | 0.71 | -1.4 | 3.3 | i | 2 | nt | nt | nt | 1
Cc1cccc(NC(=O)C2CCN(S(=O)(=O)c3cccs3)CC2)c1 | 0.65 | -2.5 | 4.9 | nt | 9 | nt | nt | nt | -16
CCCC(O)(c1ccc(Br)cc1)C(CN1CCOCC1)c1ccc(Cl)cc1 (stereo unspecified) | 0.68 | -0.2 | 1.8 | i | 5 | 4 | -16 | 0.5 | -1
CN(C)c1ccc(C(=O)OCC(=O)Nc2ccc(S(N)(=O)=O)cc2)cc1 | 0.75 | 3.0 | -2.7 | nt | 47* | 6 | 5 | 4.4 | -5
COc1ccc(NC(=O)CNS(=O)(=O)c2ccc(Cl)cc2)cc1OC | 0.67 | 2.8 | 1.3 | nt | -5 | nt | nt | nt | -10
CNC[C@@H]1Oc2ccc(NS(=O)(=O)c3ccc(Cl)cc3)cc2C(=O)N([C@H](C)CO)C[C@@H]1C | 0.78 | 22 | -1.2 | i | -10 | -2&5 | -2&0 | -1.1&4.1 | -3
COc1ccc(CN2CCN(C(=O)c3cc(OC)c(OC)c(OC)c3)CC2)cc1OC | 0.64 | 4.4 | 0.3 | i | -1 | 7 | 1 | -1.5 | -4
O=C(NNC(=S)NCc1ccccc1)c1ccccc1OC(F)F | 0.68 | -1.2 | 4.1 | i | -6 | -9 | -6 | -2.1 | 33
C=COC(=O)c1sc2nc(C)cc(C)c2c1N | 0.7 | 4.2 | -137 | i | -23 | 15 | -5 | 0.5 | -6
Cc1ccc(C(C(=O)NC2CCCC2)N(CCCO)C(=O)Cn2nnc(-c3ccc(C)o3)n2)cc1 (stereo unspecified) | 0.68 | -2.4 | 1.2 | i | 10 | 3 | 1 | -0.1 | 0
CCO/N=C(\N)c1[nH]ncc1Br | nt | 2.5 | nt | i | -1 | 2 | 7 | -3.0 | -6
CCC(=O)OC1(C(C)=O)CCC2C3CCC4=CC(=O)CCC4(C)C3CCC21C (stereo unspecified) | 0.71 | 0.4 | 5.1 | i | 2 | -28 | -39 | -8.4 | nt
Cc1cccc(C)c1NC(=O)C1(C)CSCC(=O)N1Cc1ccco1 (stereo unspecified) | nt | 40* | nt | i | nt | 9 | 6 | 9.1 | nt
CCCCc1c(O)nc(SCC(=O)Nc2cccc3ccccc23)n(-c2ccccc2OC)c1=O | 0.7 | 0.6 | 2.6 | i | 7 | -29 | -22 | -1.0 | 69
Cc1cccc(C(=O)N2CCN(c3ccccn3)CC2)c1 | 0.69 | 0.0 | 1.7 | nt | -11 | nt | nt | nt | -4
Cc1ccc(C)c(N2CCN(CC(=O)Nc3ccc4[nH]c(=O)[nH]c4c3)CC2)c1 | 0.79 | 3.1 | 5.6 | i | 3 | 0 | -2 | -1.6 | 0
Clc1ccc(OCCNCCc2ccccc2)cc1 | 0.62 | -2.8 | 5.5 | i | -4 | -6 | -17 | 0.9 | -4
COc1ccc(C2CCCN2C(=S)Nc2cccc(C)c2)cc1OC (stereo unspecified) | 0.71 | 0.7 | 0.7 | i | -5 | -12 | -12 | -1.8 | -23
Cc1nnc(SC(C)C(=O)N(C)C2CCCCC2)n1N (stereo unspecified) | 0.64 | 2.4 | 0.8 | i | -1 | 18 | 3 | 2.8 | 0
Cc1nnc(SCC(=O)Nc2ccc3c(c2)OCO3)s1 | 0.66 | 0.7 | 1.2 | i | -2 | 5 | 3 | -5.2 | nt
Cc1ccc(SCC(=O)Nc2cc(S(=O)(=O)N3CCCCC3)ccc2C)cc1 | 0.69 | 3.5 | 1.9 | i | 1 | -6 | -20 | -1.0 | 10
CC(Oc1cccc([N+](=O)[O-])c1)C(=O)NCCC1=CCCCC1 (stereo unspecified) | 0.69 | 1.3 | 2.3 | i | -2 | nt | nt | nt | -1
O=C(Nc1ccc(Nc2ccccc2)cc1)c1c(Cl)cccc1Cl | 0.71 | -3.1 | 3.3 | i | 10 | -34* | -11* | -6.3* | 49
Next part:
SMILES | Ecoli growth | HNF4A DNA FP | UCH37 inh | FGF22 binding | Beta2AR agonist | rRNA inh HTS | rRNA inh HTS OD600 | rRNA inh HTS RFP | ALR H2O2 inh
CCN1/C(=C/c2ccc3cc(C)cc(C)c3[n+]2CC)Sc2cc(C)ccc21 | 0.12* | 151* | 9.3 | i | i | 13 | -78 | 56 | nt
CC(C)Cn1cc(C(=O)N2CCN(c3ccccn3)CC2)c2c3ccccc3n(C)c2c1=O | 0.71 | -3.9 | -45 | nt | 10 | nt | nt | nt | -40
Clc1ccc(-c2ccc(-c3nn4c(-c5ccco5)nnc4s3)o2)cc1 | 0.67 | -20 | -20 | nt | 4 | nt | nt | nt | -11
O=C1CN(S(=O)(=O)c2ccccc2Cl)CCN1 | 0.66 | 6.4 | 0.6 | i | 2 | 5 | -4 | 2.0 | nt
COc1ccc(C(=O)c2ncc(C(F)(F)F)cc2Cl)cc1 | 0.71 | -3.1 | 3.5 | i | -12 | 17 | 15 | 2.3 | -6
NS(=O)(=O)c1ccc(N=Nc2c(=O)[nH]n3c(=O)c4c([nH]c23)CCCC4)cc1 | 0.73 | -0.6 | 21* | i | 1 | 7 | 17 | -4.0 | 9
O=C(NNC(=O)c1ccccc1Cl)c1cccnc1 | 0.68 | -1.0 | -0.2 | i | 4 | 5 | 14 | 1.5 | -2
CCOc1ccc(N(CC)C(=O)c2nn(-c3ccc(OC)cc3)c(=O)c3c2c2ccccc2n3C)cc1 | 0.69 | -1.3 | -6.3 | i | -6 | 8 | 7 | -3.6 | -3
CC(=O)c1c(C)[nH]c(C(=O)OCC(=O)Nc2cc(S(=O)(=O)N3CCCCC3)ccc2C)c1C | 0.7 | -2.9 | -6.9 | nt | -7 | nt | nt | nt | -1
COc1cc2nc3n(c(=O)c2cc1OC)-c1cc2ccccc2cc1C(=O)NC3Cc1ccccc1 (stereo unspecified) | nt | -0.4 | nt | i | nt | 4 | 29 | 6.2 | nt
COc1ccc(C2CC(C(F)(F)F)n3nc(C(=O)O)cc3N2)cc1 (stereo unspecified) | 0.72 | 0.5 | 6.7 | i | -5 | 4 | 8 | 6.3 | -11
Cc1noc(C)c1-c1ccc(C(=O)Nc2ccccc2)c2occc12 | nt | 1.7 | nt | i | nt | -6 | -23 | -5.9 | nt
CCCCC(=O)Nc1cccc(-c2nc3ncccc3o2)c1 | 0.71 | 4.8 | -17 | nt | -15 | nt | nt | nt | -3
Cc1ccc(N2CCN(S(=O)(=O)c3ccc(F)cc3)CC2)c(C)c1 | 0.79 | 12 | 0.8 | i | 5 | -7 | -20 | 2.9 | 0
Cc1cc(S(=O)(=O)N2CCCC2C(=O)N2CCOCC2)c(C)cc1Cl (stereo unspecified) | 0.68 | -0.6 | 2.9 | nt | -2 | nt | nt | nt | -5
Cc1ccc(S(=O)(=O)N(C)Cc2ccc(C(=O)N/N=C3\CC(=O)CC(C)(C)C3)cc2)cc1 | nt | 4.4 | nt | nt | -1 | nt | nt | nt | 4
CCOC(=O)c1c(C)nc2sc3c(c2c1-c1ccc(OC)cc1)NC(c1ccccc1)NC3=O (stereo unspecified) | 0.73 | -0.6 | -7.6 | nt | 7 | nt | nt | nt | -7
Cc1cc(C)nc(/N=C(/NC(=O)Nc2cccc(Cl)c2)Nc2ccccc2)n1 | nt | -5.1 | nt | nt | 0 | nt | nt | nt | 1
S=c1[nH]nc(-c2ccncc2)n1CC1CCCO1 (stereo unspecified) | 0.71 | -1.0 | 4.6 | nt | 2 | nt | nt | nt | 93*
Cc1nc2c(C)cccn2c1/C(O)=C1\C(=O)C(=O)N(CCN2CCOCC2)C1c1ccncc1 (stereo unspecified) | nt | -1.0 | 4.5 | nt | 1 | nt | nt | nt | 0
O=C(NNS(=O)(=O)c1ccccc1)c1csc(-c2cccnc2)n1 | 0.67 | 1.7 | 1.9 | i | 1 | 0 | 5 | -0.7 | 11
COc1cccc(/C=C/C(=O)c2ccc(NC3=NCCCS3)cc2)c1 | 0.63 | 0.2 | 6.1 | i | 15 | -31 | -35 | -5.4 | 0
CN(C(=O)CSc1cc(Cl)ccc1Cl)C1CCS(=O)(=O)C1 (stereo unspecified) | 0.64 | -1.1 | 1.6 | i | -7 | 2 | 2 | 3.7 | 0
O=C(O)c1ccccc1NC(=O)C(c1ccccc1)c1ccccc1 | 0.62 | 2.8 | 4.8 | i | 2 | -30* | -7.5* | -7.2* | 1
COc1ccc(/C=N/NC(=O)C(=O)NCC2CCCO2)cc1 (stereo unspecified) | nt | 1.5 | nt | i | -1 | 4 | 8 | 9.9 | -11
Cc1[nH]ncc1N=Cc1ccc([N+](=O)[O-])cc1 | 0.71 | -3.5 | 6.2 | i | 1 | 11 | 12 | -1.9 | -28
CC(C)Cn1c(N)c(C(=O)COC(=O)c2cccnc2Cl)c(=O)n(C)c1=O | 0.65 | 1.2 | -0.1 | i | -2 | 6 | 4 | 0.9 | 6
N#Cc1ccc2c(c1)NC(=O)C1CCCN21 (stereo unspecified) | 0.72 | 2.9 | -2.4 | i | 9 | 2 | -3 | 8.8 | nt

Single records, from the list above.
Clc1ccc(-c2ccc(-c3nn4c(-c5ccco5)nnc4s3)o2)cc1 in the list: Ecoli growth = 0.67; HNF4A DNA FP = -20; UCH37 inh = -20; FGF22 binding = nt; Beta2AR agonist = 4; rRNA inh HTS = nt; rRNA inh HTS OD600 = nt; rRNA inh HTS RFP = nt; ALR H2O2 inh = -11
Cc1noc(C)c1-c1ccc(C(=O)Nc2ccccc2)c2occc12 in the list: Ecoli growth = nt; HNF4A DNA FP = 1.7; UCH37 inh = nt; FGF22 binding = i; Beta2AR agonist = nt; rRNA inh HTS = -6; rRNA inh HTS OD600 = -23; rRNA inh HTS RFP = -5.9; ALR H2O2 inh = nt
S=c1[nH]nc(-c2ccncc2)n1CC1CCCO1 (stereo unspecified) in the list: Ecoli growth = 0.71; HNF4A DNA FP = -1.0; UCH37 inh = 4.6; FGF22 binding = nt; Beta2AR agonist = 2; rRNA inh HTS = nt; rRNA inh HTS OD600 = nt; rRNA inh HTS RFP = nt; ALR H2O2 inh = 93*

3 compounds drawn at random from the list so far, as already listed:
SMILES | Ecoli growth | HNF4A DNA FP | UCH37 inh | FGF22 binding | Beta2AR agonist | rRNA inh HTS | rRNA inh HTS OD600 | rRNA inh HTS RFP | ALR H2O2 inh
COc1cc2nc3n(c(=O)c2cc1OC)-c1cc2ccccc2cc1C(=O)NC3Cc1ccccc1 (stereo unspecified) | nt | -0.4 | nt | i | nt | 4 | 29 | 6.2 | nt
COc1cccc(/C=C/C(=O)c2ccc(NC3=NCCCS3)cc2)c1 | 0.63 | 0.2 | 6.1 | i | 15 | -31 | -35 | -5.4 | 0
CCC(=O)OC1(C(C)=O)CCC2C3CCC4=CC(=O)CCC4(C)C3CCC21C (stereo unspecified) | 0.71 | 0.4 | 5.1 | i | 2 | -28 | -39 | -8.4 | nt

Some of the compounds tested; rates above refer to the full screens.
